Screens (PubChem BioAssay)
Mtb H37Rv = Mycobacterium tuberculosis H37Rv growth inhibition, cell based, confirmatory dose response (AID 1949); M. tuberculosis H37Rv growth inhibition; most inactive calls were filed without a number and no value below 0 was filed; one-dose inhibition, % at 10 µg/mL; IC50 in µg/mL for titrated hits; actives 1.6% (n = 100,000);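 active means confirmed in a dose series; inconclusive means about 50% or more but not retested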;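 further: bacteria grown 7 days with compound before Alamar blue readout; 0% = untreated bacteria and 100% = reference antibiotic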
Starred values were filed as active, the others as inactive; i = inactive; ? = inconclusive.

SMILES	Mtb H37Rv
CN(Cc1ccccc1)S(=O)(=O)c1ccc(NC(=O)c2cccs2)cc1	2.8%
O=C(O)C(Cc1ccccc1)N1C(=O)C2C3c4ccccc4C(c4ccccc43)C2C1=O (stereo not drawn)	i
COc1ccccc1CNC(=O)C1c2ccccc2Oc2ccccc21	i
COc1ccc(CCNC(=O)c2ccc(N(C)S(=O)(=O)c3ccc(C)cc3)cc2)cc1	1.0%
O=C(CSc1nc2ccccc2s1)Nc1c(Cl)cccc1Cl	i
COc1cc(OC)c(C2=NOC(C(=O)NCc3cccs3)C2)cc1Cl (stereo not drawn)	i
COc1ccc(S(=O)(=O)N2CCN(c3ccccc3)CC2)cc1C(C)C	i
CCOC(=O)C1=C(c2ccccc2)NC(=O)NC1c1cc(OC)c(O)c([N+](=O)[O-])c1 (stereo not drawn)	i
CCCC(=O)Oc1ccc(N(C(=O)CCC)S(=O)(=O)c2ccc(F)cc2C)cc1	0.8%
OC(COc1ccc2cc(Br)ccc2c1)CN1CCN(c2ccccn2)CC1 (stereo not drawn)	8.8%
C=CCNCCOc1ccc(Br)cc1C	i
COC(=O)Cc1c(C)c2ccc(OC(C)C)cc2oc1=O	i
Cc1cc(C(=O)NC2CCCc3ccccc32)cs1 (stereo not drawn)	5.0%
CCOc1ccc(C(=O)OCc2ccccc2Cl)cc1	2.2%
CCOC(=O)c1cc(CC)sc1NC(=O)c1cccs1	0.1%
CCc1ccc2c(c1)C(O)(CC(=O)c1ccc(-c3ccccc3)cc1)C(=O)N2 (stereo not drawn)	i
CS(=O)(=O)Nc1cccc(C2=NN(S(C)(=O)=O)C(c3c(F)cccc3Cl)C2)c1 (stereo not drawn)	i
CCc1cccc(CC)c1NC(=O)CN(C)S(=O)(=O)c1ccc(F)cc1	i
O=C(COc1ccc(Cl)cc1[N+](=O)[O-])N1CCCCCC1	i
Cc1ccc(OCCCCN2CC(C)OC(C)C2)c([N+](=O)[O-])c1 (stereo not drawn)	1.3%
CC1CCc2c(sc3ncn(Cc4ccc(Cl)cc4Cl)c(=O)c23)C1 (stereo not drawn)	2.6%
COc1cccc(CN2CCC(C(=O)N3CCN(Cc4ccc5c(c4)OCO5)CC3)CC2)c1	3.2%
CCC(=O)NC(=S)Nc1cc(-c2nc3cc(C)ccc3o2)ccc1Cl	4.4%
CCOC(=O)c1cc(-c2ccc3c(c2)OCCO3)nc2ccccc12	35.6%
COC(=O)c1cc(NC(=S)NC(=O)c2ccc(Br)cc2)cc(C(=O)OC)c1	i

Already shown: entries from further up.
SMILES	Mtb H37Rv
Cc1cc(C(=O)NC2CCCc3ccccc32)cs1 (stereo not drawn)	5.0%
CCOc1ccc(C(=O)OCc2ccccc2Cl)cc1	2.2%

Carrying on:
SMILES	Mtb H37Rv
CCOC(=O)N1CCN(C(=O)C2CCN(S(=O)(=O)c3ccc(F)cc3)CC2)CC1	2.5%
COC(=O)Nc1sc2c(c1C(=O)NCc1ccco1)CCC2	i
CC(C)c1ccccc1NC(=O)CSc1ncnc2scc(-c3ccc(Br)cc3)c12	3.4%
CCOC(=O)C12C(=O)OC(C)(C)C1C2(CC)C(=O)c1ccccc1 (stereo not drawn)	i
O=C(O)c1ccc(CNS(=O)(=O)c2ccc(Cl)c(C(F)(F)F)c2)cc1	i
COc1cc([N+](=O)[O-])ccc1NC(=S)NCCC(c1ccccc1)c1ccccc1	7.6%
Cc1occc1C(=O)Nc1ccc(Cc2ccc(NC(=O)c3ccoc3C)cc2)cc1	i
CC(C)(CO)NC(=O)c1ccc(Cl)cc1Cl	i
COc1ccc(NC(=O)c2ccccc2NC(=O)c2cccs2)cc1	i
Cc1cc(C)cc(C(=O)Nc2ccc(C#N)cc2)c1	i
c1nc2c3c4c(sc3ncn2n1)CCCC4	i
CCOC(=O)c1c(NC(=O)c2cc(C)oc2C)sc(C(=O)Nc2ccc(Cl)cc2)c1C	i
COCCNC(=O)c1ccc2c(=O)n(CCC3=CCCCC3)c(=S)[nH]c2c1	i
COC(=O)c1c(NC(=S)Nn2cnnc2)sc2c1CCC(C)C2 (stereo not drawn)	i
CC(=O)Nc1ccc(S(=O)(=O)Nc2ccccc2C(=O)NCc2ccco2)cc1	i
O=C(CCS(=O)(=O)C(Cl)Cl)NCc1ccccc1	i
O=C(O)c1ccc(NC(=O)c2nsc(Cl)c2Cl)cc1	i
CC(Cc1ccccc1)NC(=O)c1cccc([N+](=O)[O-])c1 (stereo not drawn)	i
O=C(Nc1ccccc1)Nn1cnnc1	i
CC(=O)Oc1ccc(N(C(C)=O)S(=O)(=O)c2ccc(Br)cc2)c2ccccc12	1.8%
CCOC(=O)c1c(NC(=O)c2ccc([N+](=O)[O-])c(C)c2)sc(C)c1-c1ccccc1	48.1%
CC(O)c1nc2ccccc2n1CCCOc1ccc(Cl)cc1 (stereo not drawn)	?
COc1ccc(NC(=O)CCCOc2ccc(Cl)cc2)cc1Cl	6.9%
NC(=NCc1ccccc1)c1cccc([N+](=O)[O-])c1	i
CCOc1ccc(C(=O)NC(=S)Nc2ccc(-c3nn4c(C)nnc4s3)cc2)cc1Cl	1.4%

Going on with the list.
SMILES	Mtb H37Rv
COC(=O)c1ccc(NC(=S)Nc2ccc3ccccc3c2)cc1	i
CN(C)c1ccc(C(=S)N2CCCCC2)cc1Br	5.4%
CNC(=O)C(=O)NCCc1c[nH]c2ccccc12	i
Cc1nnc(SCC(=O)Nc2ccc(I)cc2)o1	i
COc1ccc(N(CC(=O)NC2CCCCCC2)S(=O)(=O)c2ccc(C)c([N+](=O)[O-])c2)cc1	i
O=C1C(Cl)=C(N2CCOCC2)C(=O)N1c1cccc(Cl)c1Cl	20.9µg/mL*
O=C(Nc1cccc([N+](=O)[O-])c1)c1ccccc1Cl	i
O=C(CN1CCCCC1)NC1CCCCC1	i
COC(=O)C1=C(C)NC2=C(C(=O)CC(c3cccs3)C2)C1c1ccc(OC)cc1OC (stereo not drawn)	i
Cn1c(=O)c2c(nc(NCc3cccnc3)n2Cc2c(F)cccc2Cl)n(C)c1=O	i
O=C(NC(=S)Nc1ccc(Cl)cc1C(F)(F)F)c1ccccc1I	i
CCC(C)NC(=O)c1ccc(NC(=O)C2(c3ccccc3)CCCC2)cc1 (stereo not drawn)	1.08µg/mL*
CCCCN1C(=O)C(O)(CC(=O)c2ccccc2)c2ccccc21 (stereo not drawn)	i
COc1ccc(C(=O)Nc2ccc(S(=O)(=O)NC(C)(C)C)cc2)c(OC)c1	i
COc1cccc(C(=O)NNC(=O)Nc2ccc(Br)cc2Cl)c1	i
O=C(Nc1cccc(-c2nc3ccccc3o2)c1)c1ccccc1Br	i
O=C(Cc1ccc(Cl)cc1)Nc1nnc(Cc2ccc(Cl)cc2)s1	6.9%
O=C1c2ccccc2C(=O)N1Cc1c(F)cccc1Cl	i
COC(=O)Nc1ccc(S(=O)(=O)N2CCN(C)CC2)cc1	i
CC(C)(C)c1ccc(OCC(=O)Nc2ccccc2C(F)(F)F)c(Br)c1	19.3%
COc1cccc(C2C(C(=O)OC3CCCCCC3)=C(C)NC3=C2C(=O)CCC3)c1OC (stereo not drawn)	i
CCCN(CCC)S(=O)(=O)c1ccc(NC(=O)c2ccc(F)cc2)cc1	i
COc1ccc(C(C)NC(=O)c2oc3ccccc3c2C)cc1OC (stereo not drawn)	2.6%
CC(Oc1ccccc1F)C(=O)NC1CCS(=O)(=O)C1 (stereo not drawn)	i
COc1cc(F)ccc1S(=O)(=O)N1CCCCCC1	0.9%

Five entries from above, sorted by molecular weight, low to high.
SMILES	Mtb H37Rv
COc1cc(F)ccc1S(=O)(=O)N1CCCCCC1	0.9%
COc1ccc(C(C)NC(=O)c2oc3ccccc3c2C)cc1OC (stereo not drawn)	2.6%
O=C(Cc1ccc(Cl)cc1)Nc1nnc(Cc2ccc(Cl)cc2)s1	6.9%
COc1ccc(C(=O)Nc2ccc(S(=O)(=O)NC(C)(C)C)cc2)c(OC)c1	i
Cn1c(=O)c2c(nc(NCc3cccnc3)n2Cc2c(F)cccc2Cl)n(C)c1=O	i

Other structures:
SMILES	Mtb H37Rv
Cc1ccc(OCCSc2cc(C)nc(N)n2)cc1	0.2%
CC(C)Cc1nnc(NC(=O)CSc2nc3ccccc3c(=O)[nH]2)s1	i
COc1ccc(C(=O)Oc2ccc(C(=S)N3CCOCC3)cc2Br)cc1OC	i
CCOc1cc(Cl)c(S(=O)(=O)n2nnc3ccccc32)cc1Cl	i
CCOC(=O)c1cc(Cc2ccccc2)sc1NC(=O)c1c(C)noc1C	i
Cc1cc(N/C=C(\C#N)C(N)=S)no1	i
Fc1ccccc1N1CCN(C2CCN(Cc3ccccc3Cl)CC2)CC1	5.5%
Cc1oc2cc(O)ccc2c(=O)c1-c1nncn1-c1ccccc1	i
CCOC(=O)c1c(NC(=O)C(Sc2ccccc2)c2ccccc2)sc(C(N)=O)c1C (stereo not drawn)	i
COCC(=O)Nc1ccc([N+](=O)[O-])cc1	i
Cc1cccc(NC(=O)C2COc3ccccc3O2)n1 (stereo not drawn)	i
Cc1occc1C(=O)Nc1ccc(C(C)C)cc1	7.2%
CCN(Cc1nnc(-c2ccccc2)o1)C1CCCCC1	i
COc1ccc(Br)cc1S(=O)(=O)Nc1cccc(Cl)c1C	4.7%
CS(=O)(=O)N(CC(=O)NCCC1=CCCCC1)c1cccc(F)c1	12.3%
COc1cc(NC(=S)NCc2ccco2)c(OC)cc1Cl	i
CN1C(=O)N(C)C(=O)C(CCc2ccncc2)(C(c2ccccc2)c2ccccc2)C1=O	i
CCN(CC)Cc1ccc(NC(=O)c2cccc(C)c2)cc1	i
COC(=O)c1cc(C(=O)OC)cc(N2C(=O)CC(N3CCN(c4ccccc4)CC3)C2=O)c1 (stereo not drawn)	i
CC(C)CC(=O)Nc1ccc([N+](=O)[O-])c(NC(=O)CC(C)C)c1	i
Cc1nc2ccccc2c(=O)n1-c1ccccc1C(F)(F)F	i
N#Cc1c(NC(=O)c2ccc(Br)s2)sc2c1CCC2	i
CC(=O)Oc1ccc(OC(C)=O)c(S(=O)(=O)c2ccc(Cl)c(Cl)c2)c1	0.5%
Cc1ccc(C)c(C(=O)Nc2ccccc2C(C)(C)C)c1	i
O=Cc1ccc(OC(=O)C2CCC(N3C(=O)C4CC=CCC4C3=O)CC2)cc1 (stereo not drawn)	i

Additional results
SMILES	Mtb H37Rv
COc1cccc(C(=O)Nc2nc(COc3ccccc3)cs2)c1OC	i
N#Cc1c(Nc2ccccc2)sc(C(=O)Nc2cccc(C(F)(F)F)c2)c1N	2.8%
CCNC(=O)c1cc(Cl)ccc1NC(=O)c1ccco1	3.9%
O=C(c1ccc2c(c1)C1C=CCC1C(c1ccc(Cl)cc1Cl)N2)N1CCCCC1 (stereo not drawn)	3.5%
C=CCc1cccc(C)c1OCCCNCCCC	i
CCN(Cc1ccncc1)C(=S)NCCc1ccccc1	i
CC(C)(C)CNc1cc(N2CCN(C(=O)c3ccc(Cl)cc3)CC2)ccc1[N+](=O)[O-]	15.3%
COc1ccc(CSc2nnc(-c3ccccc3Cl)n2C)cc1	i
N#C/C(=C\c1ccc(-c2ccccc2)cc1)S(=O)(=O)c1ccccc1	i
CCc1ccc(Nc2nc3ccccc3nc2NS(=O)(=O)c2ccc(NC(C)=O)cc2)cc1	i
O=C1c2ccccc2C(=O)N1Cc1cc(Cl)c2cccnc2c1O	i
CC1CN(S(=O)(=O)c2cccc(F)c2)CC(C)O1 (stereo not drawn)	i
Cc1c(NC(=O)c2ccc(COc3ccc4ccccc4c3)o2)c(=O)n(-c2ccccc2)n1C	i
Cc1cc(Br)ccc1NC(=O)C(=O)NCc1cccs1	i
Cc1[nH]nc2c1C1(CCOC1C)C(C#N)=C(N)O2 (stereo not drawn)	i
FC(F)(F)c1ccccc1CN1CCN(C2CCCCCC2)CC1	i
O=C(CCc1ccc(S(=O)(=O)NC2CCCCC2)cc1)Nc1ccc2c(c1)OCO2	i
CCOc1ccc(N2C(=O)CC(N3CCC(O)(c4ccc(Br)cc4)CC3)C2=O)cc1 (stereo not drawn)	i
CCc1ccc(OCCCN2CCOCC2)cc1	i
Cc1ccc(NC(=O)COc2cccc(C)c2C)cc1C	i
O=C(NC1(C(F)(F)F)N=C2SCCN2C1=O)C1CCCCC1 (stereo not drawn)	i
C=CCn1c(SCC(=O)N2CCOCC2)nc2ccc(I)cc2c1=O	i
COc1ccc(CCN2C(=O)C3CC(C)=C(C)CC3C2=O)cc1OC (stereo not drawn)	i
CC1=C(C(=O)OCc2ccccc2)C(c2ccc(N3CCOCC3)cc2)NC(=S)N1 (stereo not drawn)	i
O=C(Nc1ccccc1C(F)(F)F)c1nn2c(c1Cl)NC(c1ccccc1)CC2C(F)(F)F (stereo not drawn)	20.6%

The list continues:
SMILES	Mtb H37Rv
Cc1ccc(Cl)cc1N(CC(=O)Nc1ccccc1C(=O)NCCc1ccccc1)S(C)(=O)=O	0.5%
COc1ccccc1C(=O)NCCSCc1c(F)cccc1Cl	0.6%
O=C1c2ccccc2C(=O)N1CCC(c1ccccc1)c1ccco1 (stereo not drawn)	0.2%
O=c1cc(C(F)(F)F)[nH]n1-c1ccc([N+](=O)[O-])cc1	i
O=C(Nc1cc(C(F)(F)F)cc(C(F)(F)F)c1)C1CC1	4.2%
Cc1ccc(NC(=O)c2c(Cl)cccc2Cl)c(Br)c1	?
C=CCn1c(SCC(=O)Nc2nc(-c3ccccc3)cs2)nnc1-c1ccccc1	0.2%
COc1ccc(S(=O)(=O)N(CC(=O)Nc2cccc(C)c2C)c2ccccc2)cc1	i
O=C(COc1ccc(C(=O)Nc2cccc(C(F)(F)F)c2)cc1)Nc1ccccc1	i
Cc1ccc(OCC(=O)Nc2ccc(Cl)cc2C)c(C)c1	0.8%

Molecules above containing a COOH group, in the order listed:
SMILES	Mtb H37Rv
O=C(O)C(Cc1ccccc1)N1C(=O)C2C3c4ccccc4C(c4ccccc43)C2C1=O (stereo not drawn)	i
O=C(O)c1ccc(CNS(=O)(=O)c2ccc(Cl)c(C(F)(F)F)c2)cc1	i
O=C(O)c1ccc(NC(=O)c2nsc(Cl)c2Cl)cc1	i

A portion of the library. The share of hits here may be higher or lower than overall.
